VDR inhibitor: Inhibitors of the vitamin D receptor (VDR): qHTS. Vitamin D3 receptor (Homo sapiens), P11473. VDR-SRC2-3 peptide fluorescence polarization, 2 h. Potency, µM, without a hit: max response, negative = inhibition, most hits filed as inhibitors. 400,000 tested, 0.93% active. AID 504847, 2011; active = well fitted inhibition curve with a large enough effect; inconclusive = small, poorly fitted or top-dose-only effect, or another doubt; inactive = no such curve, though single readings can be large or run the other way; note: series mostly up to about 120 µM
Target sequence (P11473 whole entry, looked up): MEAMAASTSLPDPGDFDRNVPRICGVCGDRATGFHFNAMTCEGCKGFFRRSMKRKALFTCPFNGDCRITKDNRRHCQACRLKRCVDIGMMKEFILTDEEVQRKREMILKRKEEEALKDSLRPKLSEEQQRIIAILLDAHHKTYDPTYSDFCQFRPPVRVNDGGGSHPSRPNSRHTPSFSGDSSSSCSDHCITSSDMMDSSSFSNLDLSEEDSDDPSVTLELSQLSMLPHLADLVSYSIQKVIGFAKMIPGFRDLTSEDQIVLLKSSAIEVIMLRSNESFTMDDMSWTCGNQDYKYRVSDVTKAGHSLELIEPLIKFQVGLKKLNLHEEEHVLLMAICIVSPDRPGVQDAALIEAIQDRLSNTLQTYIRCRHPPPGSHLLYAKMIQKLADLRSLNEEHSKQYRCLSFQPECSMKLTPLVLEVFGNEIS
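Inhibition of the VDR/SRC2-3 peptide interaction is quantified by fluorescence polarization. Compounds (23 nl, pintool) incubate with the reagents for 2 hours at ambient room temperature.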
The depositor's hits bear a star; ? = inconclusive; & = joins results of further samples. % is set by controls: 0 for no effect and ±100 for the full control effect; potency is the fitted concentration of half-maximal effect. These rows are one share of the data (hit frequency here may not be typical).

SMILES | VDR inhibitor
COc1ccc(CNC(=O)[C@@H](C)NC(=O)C2CCN(C(=O)[C@@H](N)CCSC)CC2)cc1 | -15%
CCOc1ccc(OCC)c(S(=O)(=O)NCCOC23CC4CC(CC(C4)C2)C3)c1 | 0%
CC1OC2(OC1C)C(=O)Nc1ccccc12 (stereo not drawn) | 0%
CS(=O)(=O)N(CC(=O)N1CCN(c2ccccc2F)CC1)c1ccc2c(c1)OCCO2 | 1%
Cc1ccc(Nc2ncnc3c2cnn3-c2ccccc2)c(C)c1 | 4%
NC(=O)c1ccc2c(c1)S(=O)(=O)c1ccccc1C2=O | -25%
O=C1CS(=O)(=O)C2(C(=O)N(Cc3ccccc3)c3ccccc32)N1c1ccccc1 (stereo not drawn) | 0%
O=C1C2C3C=CC(CC3)C2C(=O)N1c1ccc(Cl)cc1 (stereo not drawn) | -17%
CN(C)S(=O)(=O)c1ccc2c(c1)C(CC(=O)O)OC2=O (stereo not drawn) | -4%
Cc1nnc(SCC(=O)NCC2CCCO2)n1Cc1ccccc1 (stereo not drawn) | 7%
Cc1cc(Br)cc2c1NC(=O)C2(O)CC(=O)c1ccco1 (stereo not drawn) | -7%
COc1ccc(/C=N/NC(=O)c2cccnc2)cc1COc1ccc(NC(C)=O)cc1 | 17%
CN(C)C(=O)/C(=C\c1cccc(Oc2ccccc2)c1)NC(=O)c1ccccc1 | -12%
CCN(CC)S(=O)(=O)c1cc(NC(=O)CSc2nccn2C)ccc1C | 0%
COc1ccc(C(c2sc3nc(C)nn3c2O)N2CCC(O)CC2)cc1OC (stereo not drawn) | 2%

3 entries already listed, ordered by heavy-atom count, lowest first.
SMILES | VDR inhibitor
NC(=O)c1ccc2c(c1)S(=O)(=O)c1ccccc1C2=O | -25%
CCN(CC)S(=O)(=O)c1cc(NC(=O)CSc2nccn2C)ccc1C | 0%
CS(=O)(=O)N(CC(=O)N1CCN(c2ccccc2F)CC1)c1ccc2c(c1)OCCO2 | 1%

Further records follow:
SMILES | VDR inhibitor
COc1ccc(NC2CCCN(C(=O)c3ccc4nc(C)c(C)nc4c3)C2)cc1OC (stereo not drawn) | 19%
CCCCCC(=O)NC(=S)Nc1ccc(N2CCOCC2)cc1 | -19%
CCC(=O)N1c2ccccc2NC2=C(C(=O)CCC2)C1c1ccco1 (stereo not drawn) | -10%
Cc1ccc(N(Cc2cccs2)C(=O)Nc2cccc(Cl)c2)cc1 | -1%
Cc1ccc(-n2nnnc2SCC(=O)Nc2cccc(NC(=O)c3ccco3)c2)cc1C | -13%
COc1ccc(-n2c(C)cc(=O)c3c2CC(C)(C)CC3=O)cc1 | -5%
Cc1cc(CCCCCCCCc2cc(C)cc(=O)o2)oc(=O)c1 | -3%
CC(=O)C1=C(c2ccccc2)NC(=S)NC1c1ccc(O)c(O)c1 (stereo not drawn) | -2%
COc1ccc(NC(=O)NC(C)c2c(-n3cccc3)sc(C)c2C)cc1OC (stereo not drawn) | -13%
CCCNC(=O)N1CCN(Cc2ccco2)CC1 | -14%
NC1=NC(=O)/C(=C/c2ccc(OCC(=O)O)cc2)S1 | -8%
Cn1c(CN2CCOCC2)nnc1SCc1ccc(C#N)cc1 | 20%
COc1ccccc1N1CCN(C2CCCN(C(=O)c3cscn3)C2)CC1 (stereo not drawn) | 21%
O=C(COC(=O)C1COc2ccccc2O1)Nc1cccc(F)c1 (stereo not drawn) | 0%
Cc1cc(-c2csc(NC(=O)c3ccc(C#N)cc3)n2)c(C)n1Cc1ccco1 | 1%
CCN(CC(=O)N1CCC(C(N)=O)CC1)S(=O)(=O)c1cc(Cl)ccc1Cl | -2%
Cn1c(C(=O)N2CCN(C(=O)c3ccco3)CC2)cc2c(=O)n(C)c3ccccc3c21 | 4%
c1cncc(CNc2nc(-c3ccoc3)nc3ccccc23)c1 | ?
O=C(Nc1ccc(S(=O)(=O)Nc2ccccn2)cc1)c1cccc(Cl)c1 | 4%
COC(=O)Cn1c(CN(Cc2ccccc2)Cc2ccccc2)nc2c1c(=O)[nH]c(=O)n2C | -2%
COc1cc(CC(=O)OCC(=O)c2ccc[nH]2)cc(OC)c1OC | -1%
CC(C)CCNc1nc(Nc2ccccc2)c2cnn(C)c2n1 | 10%
Cc1cc(C)c([C@@H]2C[C@H]3CN(C4CCCC4)C(=O)[C@]34CCCN24)c(-n2cccn2)c1 | -9%
Cc1ccsc1C1Nc2ccccc2C(=O)N1O (stereo not drawn) | -19%
Cc1sc2ncnc(SCC(=O)NNC(=O)c3ccco3)c2c1C | -30%
COC(=O)CSc1ccc2nnc(CCNS(=O)(=O)c3ccc(C)cc3)n2n1 | -13%&2%
CC(C)N(Cc1ccccc1)C(=S)Nc1ccc(F)cc1 | -8%
COc1ccc(-c2nn(C)c3sc(C(=O)Nc4cccc(F)c4)cc23)cc1OC | 13%
Cc1ccc(NC(=S)N(CCCN2CCCC(C)C2)Cc2ccco2)cc1C (stereo not drawn) | 12%
CCOc1ccc(-c2nnn(CC(=O)NCc3ccccc3)n2)cc1 | 2%

Sorted by value in VDR inhibitor (smallest number first): three from the list above
mol	VDR inhibitor
CCCNC(=O)N1CCN(Cc2ccco2)CC1	-14%
COC(=O)Cn1c(CN(Cc2ccccc2)Cc2ccccc2)nc2c1c(=O)[nH]c(=O)n2C	-2%
Cn1c(C(=O)N2CCN(C(=O)c3ccco3)CC2)cc2c(=O)n(C)c3ccccc3c21	4%

Following part.
SMILES | VDR inhibitor
O=C(Nc1nc(-c2cc3ccccc3o2)cs1)c1ccc(S(=O)(=O)N2CCCC2)cc1 | 0%
CCCN1CCN(C(=O)c2ccc(Sc3ccc(C)cc3)c(NC(C)=O)c2)CC1 | -4%
COc1cccc(-n2c(-c3ccccc3F)nc3c(cnn3-c3ccc(C)cc3)c2=O)c1 | -13%
CC1CCCN(C(=O)NC(=O)c2ccc(Cl)cc2)C1 (stereo not drawn) | -8%
CCc1nc2ccccc2n1CC(=O)OCC(=O)N(CC(C)C)c1c(N)n(Cc2ccccc2)c(=O)[nH]c1=O | -7%
O=c1[nH]c(SCc2ccccc2Cl)nc2[nH]ncc12 | -14%
O=C(Cc1cccc2ccccc12)N/N=C/c1ccc(F)cc1 | 5%
CCOc1ccccc1NC(=O)c1cc(S(=O)(=O)N2CCC3(CC2)OCCO3)ccc1F | 5%
CCc1ccccc1N1C(=O)C2C3CC(=O)C(c4ccccc43)C2C1=O (stereo not drawn) | -26%
CC1(C)C(C(=O)O)N2C(=O)C(NC(=O)Cc3ccccc3)C2S1=O (stereo not drawn) | -5%
Cc1ccc(C)c(C(=O)Nc2nc3ccccc3[nH]2)c1 | -17%
Cc1oc2c(C)c3oc(=O)c(CCC(=O)O)c(C)c3cc2c1-c1ccccc1 | ?
O=C(Oc1cccc(C(=S)N2CCOCC2)c1)c1ccccc1 | -11%
O=C(NCC1CCCO1)c1cc(Br)c(Br)s1 (stereo not drawn) | 13%
COCCn1c(SCC(=O)Nc2ccccc2F)nc2c(c1=O)SCC2 | 5%

4 entries from above, as comma-separated lines.
Structure,VDR inhibitor
CC1OC2(OC1C)C(=O)Nc1ccccc12 (stereo not drawn),0%
CS(=O)(=O)N(CC(=O)N1CCN(c2ccccc2F)CC1)c1ccc2c(c1)OCCO2,1%
Cc1ccc(Nc2ncnc3c2cnn3-c2ccccc2)c(C)c1,4%
NC(=O)c1ccc2c(c1)S(=O)(=O)c1ccccc1C2=O,-25%

Remaining list, next part
SMILES | VDR inhibitor
CSc1ncccc1C(=O)Nc1cccc(S(=O)(=O)N2CCCCC2)c1 | -15%
CC(=O)N(C)c1cccc(-c2ccc3nnc(C)n3n2)c1 | -21%
O=C1c2ccccc2C(=O)N1CCc1nc2ccccc2c(=O)n1Cc1ccco1 | -3%
Cc1ccc(Cn2nc(C)c(NC(=O)C3CC3)c2C)cc1 | -5%
COc1ccc(C(=O)C[n+]2ccccc2/C=N/O)cc1 | -20%
COc1cccc(C(=O)NCCCNC(=O)c2ccco2)c1 | -6%
N#Cc1ccc(C=NN2CCCCCC2)cc1 | -7%
Cc1[nH]n(-c2nc(-c3cccc([N+](=O)[O-])c3)cs2)c(=O)c1C | -20%
COc1ccc(N(CC(=O)NN=C2CCCCCCC2)S(=O)(=O)c2ccccc2)cc1Cl | 13%
CCOc1ccc2[nH]c(=O)c(CN(CCN3CCCC3)C(=S)Nc3ccccc3OC)cc2c1 | 22%
COc1ccc2sc(-c3ccccc3OC)c(-c3ccc(O)cc3)c2c1 | -11%
C(=Nc1ccc(N2CCOCC2)cc1)c1c[nH]c2ccccc12 | ?
Cc1ccc(-n2ncc3c(Nc4ccccc4C)ncnc32)cc1 | 0%
Cn1c2ccc(F)cc2c2ncn(CCCN(CCO)CCO)c(=O)c21 | -6%
CCN(CC)c1ccc(/C=c2\sc3nnc(-c4ccccc4Cl)n3c2=O)cc1 | -4%
Cc1[nH]c2ccccc2c1/C=N/Nc1ccc([N+](=O)[O-])cc1S(=O)(=O)Nc1ccc(Cl)cc1 | 4%
O=C(CN1CCN(c2ccccc2O)CC1)Nc1cc([N+](=O)[O-])ccc1Cl | 5%
C[C@H](N)C(=O)NCC(=O)N[C@H]1CSSC[C@@H](C(=O)O)NC(=O)[C@H](CO)NC(=O)[C@H]([C@@H](C)O)NC(=O)[C@H](Cc2ccccc2)NC(=O)[C@H]([C@@H](C)O)NC(=O)[C@H](CCCCN)NC(=O)[C@H](Cc2c[nH]c3ccccc23)NC(=O)[C@H](Cc2ccccc2)NC(=O)[C@H](Cc2ccccc2)NC(=O)[C@H](CC(N)=O)NC(=O)[C@H](CCCCN)NC1=O | 0%
CCOC(=O)Cc1csc(-n2sc3ccccc3c2=O)n1 | 16µM*
COc1ccc(NC(=O)C(=O)NCCc2sc(-c3ccc(Cl)cc3)nc2C)cc1 | 19%
O=C(CC1C(=O)NCCN1Cc1ccccc1C(F)(F)F)NCCn1cccn1 (stereo not drawn) | -4%
Cc1cc(C)c(C)c(S(=O)(=O)N2CCN(C(=O)c3ccccc3OCc3c(C)noc3C)CC2)c1C | 13%
Cn1c(=O)[nH]c2cc(-c3noc(-c4ccc(Br)cc4)n3)ccc21 | 4%
Cc1[nH]c(C)c(S(=O)(=O)NCc2ccc(N(C)C)cc2)c1C(=O)N1CCCC1 | 6%
COc1ccc(/C=C2\SC(=O)N(CC(=O)NC3C=CS(=O)(=O)C3)C2=O)cc1 (stereo not drawn) | 2%
C/C(=N\NC(=O)c1nnn(-c2nonc2N)c1-c1ccc2c(c1)OCO2)c1ccc(C)cc1 | 6%
Cc1ccc(NC(=O)CN(C)C(=O)c2cc(-c3ccco3)nc3ccccc23)cc1 | ?
O=C(Nc1ccccc1)N(Cc1cccc(Cl)c1)c1ccccn1 | 17%
O=[N+]([O-])c1ccc(-c2ccc(S(=O)(=O)N3CCOCC3)cc2)cc1 | -3%
CCCCCOCC1CC(C/C(C)=N/NC(N)=O)(C(=O)OCC)C(=O)O1 (stereo not drawn) | -7%
Cc1ccc(C)c(NC(=O)CSc2nncn2C)c1 | -15%
O=C(Nc1ccc2ccccc2c1)c1ccc(Cl)cc1Cl | -11%
COc1ccc(CNC(=O)COC(=O)/C=C/c2ccc(Cl)cc2)cc1 | 1%
O=C(NC1CCCC1)C(c1ccc(N2CCOCC2)cc1)N(Cc1ccccc1)C(=O)c1ccco1 (stereo not drawn) | -2%
O=C(COc1ccccc1)Nc1ncn[nH]1 | 3%
O=C(CN1C(=O)c2ccccc2S1(=O)=O)c1cccc(Br)c1 | -4%
Cc1ccc(CNC(=O)Cn2cnc3c(OCc4ccccc4)ncnc32)o1 | 6%
Cc1cccc(-n2c(SCC(=O)NCc3ccco3)nc3ccccc3c2=O)c1 | 6%
Cn1cccc1/C=N/NC(=O)Cc1cccc2ccccc12 | 4%
CCCn1c(CC)nc([N+](=O)[O-])c1Sc1ccc(C)cc1 | 2%
CC(C)(C)OC(=O)N[C@@H](Cc1ccccc1)c1nnc(SCC(N)=O)o1 | -28%
Cc1ccc(C2CC2C(=O)NNC(=S)Nc2cccc(C)c2)cc1 (stereo not drawn) | -14%
O=C1CCCCCN1CSc1nc2ccccc2s1 | 0%
Cn1c(O)c(C=NCCCCCC(=O)O)c(=O)n(C)c1=O | 13%
COc1ccccc1Nc1nc(N)nc(CCl)n1 | -4%
O=C(/C=C/c1ccc(-c2cccc([N+](=O)[O-])c2)o1)N1CCOCC1 | -1%
CCOC(=O)C1CCCN(S(=O)(=O)c2cc(OCC(N)=O)c(C)cc2Cl)C1 (stereo not drawn) | -7%
CCC(=O)Nc1nnc(S(=O)(=O)N(C)c2ccccc2)s1 | 15%
O=C(OCc1cnc(Cl)s1)c1cccs1 | -15%
CCOC(=O)c1sc2nc(CN3CCN(c4cccc(C(F)(F)F)c4)CC3)[nH]c(=O)c2c1C | -14%
O=C(Nc1ccc(S(=O)(=O)N2CCOCC2)cc1)c1cc(-c2cc(Cl)ccc2O)n[nH]1 | -13%
CC1CN(Cc2nc3c(c(=O)n(C)c(=O)n3C)n2CC(O)CO)CC(C)O1 (stereo not drawn) | 1%
c1csc(-c2ccnc3ncnn23)c1 | 14%
CCOC(=O)/C(C#N)=C/c1c(N2CCN(c3ccccc3)CC2)nc2ccccn2c1=O | -2%
